HIV Env fusion: inhibitors of HIV-1 Env-driven cell-cell fusion, primary screen, HeLa-JRFL effector, CEM21 target cells, luciferase; inhibition, % at 12.3 µM; hit rate 1.1% among 360,000; AID 651610, 2012;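 active means mean replicate inhibition score of at least 50 and every replicate individually at or above 50; inconclusive means only one of the two criteria met; inactive means mean below 50 and not all replicates reaching 50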;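 further: 0% = plate neutral controls and 100% = maraviroc near 300 nM; one replicate is shown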
PABP polyA inh: PABP poly(A) RNA binding inhibitors, primary screen, biochemical, fluorescence polarization, uHTS | Polyadenylate-binding protein 1 (Homo sapiens), P11940 | inhibition, % at 35 µM | hit rate 1% among 290,000 | AID 2014, 2009;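 active means 50% or more with normal probe brightness, or confirmed in later tests; inconclusive means above 50% with abnormal brightness, or retests that disagree; inactive means below 50% or failed in later tests; about a fifth of its hits are not listed in these tables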;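 further: calls also rest on retests at 20 µM and on dose response follow-up; controls were probe without protein and protein plus probe with vehicle; some compounds called inactive have numbers as strong as hits; many hits fall short of the cut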
Target sequence (P11940 whole entry, looked up): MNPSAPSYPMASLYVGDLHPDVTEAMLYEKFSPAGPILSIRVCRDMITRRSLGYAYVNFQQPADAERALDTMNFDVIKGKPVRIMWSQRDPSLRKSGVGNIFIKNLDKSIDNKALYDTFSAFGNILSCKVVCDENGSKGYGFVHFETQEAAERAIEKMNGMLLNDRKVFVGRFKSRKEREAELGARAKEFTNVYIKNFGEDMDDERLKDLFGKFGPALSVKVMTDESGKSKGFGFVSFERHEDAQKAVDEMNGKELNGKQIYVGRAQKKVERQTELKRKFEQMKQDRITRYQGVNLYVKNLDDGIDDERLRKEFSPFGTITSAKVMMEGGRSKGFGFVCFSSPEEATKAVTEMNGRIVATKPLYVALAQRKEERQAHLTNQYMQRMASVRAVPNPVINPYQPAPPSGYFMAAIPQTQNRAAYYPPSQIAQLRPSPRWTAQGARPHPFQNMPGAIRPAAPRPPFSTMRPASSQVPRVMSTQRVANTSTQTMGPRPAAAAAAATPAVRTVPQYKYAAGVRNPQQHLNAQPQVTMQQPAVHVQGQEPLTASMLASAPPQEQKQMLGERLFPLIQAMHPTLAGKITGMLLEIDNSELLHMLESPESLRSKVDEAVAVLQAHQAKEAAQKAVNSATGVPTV
MT1-MMP act inh: blockers of MT1-MMP proenzyme processing, primary screen, HT1080 RFP-PRO-GFP cells, GFP/RFP fluorescence | Matrix metalloproteinase-14 (Homo sapiens), P50281 | GFP/RFP ratio change, % at 20 µM | GFP/RFP ratio fluorescence, overnight; percent of plate control window, DMSO zero | hit rate 0.061% among 360,000;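 active means GFP/RFP ratio change of at least 30% with cell ATP level not reduced by more than half and red fluorescence within 50% of control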; further: strong numbers were not always called active
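Compound: 20 µM single dose, 1% DMSO / System: HT1080 RFP-PRO-GFP cells / Controls: DMSO and RFP-L50D-GFP cell wells / Read-out basis: GFP/RFP fluorescence ratio / Schedule: overnight compound exposure at 37 °C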
CSC inhib: cancer stem cell viability inhibitors, primary screen, luminescence. cancer stem cell-like cells viability. inhibition, % at 7.5 µM. hit rate 1.1% among 300,000;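 active means mean at 75% or more and at least half the replicates too; inconclusive means mean and replicates disagree; tested in HMLE shEcad cells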;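 further: 0% = median of negative and 100% = median of positive control wells; the first replicate is given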
UUG fidelity: modulators of yeast start codon fidelity, primary screen, whole organism, S. cerevisiae, single point, plate reader; S. cerevisiae UUG-firefly luciferase reporter, luminescence/redox ratio; activity score, % at 18.7 µM; hit rate 0.13% among 350,000; AID 602363, 2012;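 active means replicate mean at a twofold rise or more, about +100% in these data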;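 further: firefly luciferase made from a UUG start codon reports start codon fidelity; reporter light over untreated wells divided by growth signal over untreated wells; some hits fall short of that in this replicate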
Rce1 inh: yeast Rce1p protease inhibitors, primary screen, biochemical, fluorescence, cell-free homogeneous. yeast membranes, quenched prenylated peptide cleavage fluorescence. calls only. hit rate 0.27% among 290,000;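 active means fall in fluorescence gain of 50% or more versus controls, with final raw signal at or below 3038400; inconclusive means same 50% fall but final raw signal above 3038400; inactive means fall in fluorescence gain under 50%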;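 further: plate controls were neutral control wells for no effect and wells lacking membranes for full effect; tested at 10 µM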
eIF4H inh: human eIF4H binding inhibitors, primary screen, translation initiation inhibitor project, biochemical, uHTS, fluorescence polarization. Eukaryotic translation initiation factor 4H (Homo sapiens), Q15056. eIF4H fluorescence polarization binding assay. inhibition, % at 35 µM. hit rate 0.94% among 290,000. AID 2012, 2009;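 active means 50% or more with normal probe brightness, or confirmed in later tests; inconclusive means above 50% with abnormal brightness, or retests that disagree; inactive means below 50% or failed in later tests; about a fifth of its hits are not listed in these tables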;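 further: calls also rest on retests at 20 µM and on dose response follow-up; 0% = protein and probe with vehicle and 100% = probe without protein; strong numbers were not always called active; many hits fall short of the cut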
eIF4H inh retest: further read-out of eIF4H inh, marked with its call; inhibition, %; compound at 20 µM; confirmation average;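 mean of two retest wells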
PABP polyA inh retest: also measured in PABP polyA inh; calls as there; inhibition, %; compound at 20 µM; confirmation repeats;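 mean of two retest wells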
MT1-MMP act inh RFP: recorded beside MT1-MMP act inh, whose call it bears; RFP signal change, %; measured here: RFP expression control read;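 0 = vehicle wells; hits needed this value within 50% of zero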
The depositor's hits bear a star; i = inactive; ? = inconclusive; . = not tested or not shown; & = joins results of further samples.

SMILES	HIV Env fusion	PABP polyA inh	MT1-MMP act inh	MT1-MMP act inh RFP	CSC inhib	UUG fidelity	Rce1 inh	eIF4H inh	others
COC(=O)CC(=O)O[C@H]1C=C[C@@H](NC(=O)OC(C)(C)C)C1	0	.	2	3	.	-41	.	.
Cc1cc2nc3ccc(N(C)C)cc3nc2cc1N	-26	.	4	59	24	.	i	.
Nc1nnc(-c2ccc(Cl)c([N+](=O)[O-])c2)s1	-3	0	5	2	-13	-28	.	12
CC(Oc1cccc(Cl)c1)C(=O)Nc1cc(=O)n(C)c(=O)n1C (stereo not given)	-17	-1	1	-2	-7	0	i	2
CCN1CCN(C(=O)c2ccc3c(c2)N(Cc2ccccc2)C(=O)c2ccccc2S3=O)CC1 (stereo not given)	26	-12	0	7	0	-7	i	-5
CC(NCC(O)COCc1ccc(Cl)cc1)c1ccccc1 (stereo not given)	19	11	4	3	6	.	i	-8
CC(C)N(Cc1ccccc1)C(=O)CN1C(=O)NC2(CCCCCC2)C1=O	.	.	3	-2	-2	-15	.	.
CCCCCCc1c(O)nc(SCCN(C)C)[nH]c1=O	3	11	-2	3	-6	.	i	3
O=C(CSc1nnc(-c2ccccc2)c(-c2ccccc2)n1)NCC1CCCO1 (stereo not given)	-11	.	-3	0	-6	7	.	.
Cc1ccc(S(=O)(=O)NN=C2C3CC4CC(C3)CC2C4)cc1	-10	.	1	-1	-17	.	i	.
COc1cc(/C=C\C(=O)NCc2ccc3[nH]c(C)cc3c2)cc(OC)c1OC	9	-3	0	4	.	1	i	-3
CCOc1cccc(C2NC(=S)NC(C)=C2C(=O)Nc2ccccc2)c1 (stereo not given)	.	-8	0	-2	11	-19	i	-5
Cc1ccc(S(=O)(=O)N2CC(C(=O)O)=CC[C@H]2c2ccc(Cl)cc2)cc1	4	.	8	5	1	6	.	.
COc1ccc(OC(=O)N(C)C[C@H]2OCc3cn(nn3)CCCC(=O)N([C@H](C)CO)C[C@@H]2C)cc1	-13	.	-1	3	.	-13&1	.	.
S=C(NCC1COc2ccccc2O1)Nc1ccccc1 (stereo not given)	-11	-7	2	1	1	.	i	-8
CCc1ccc2oc(C(=O)N3CCN(c4ccccc4OC)CC3)cc(=O)c2c1	-17	7	2	-6	70	0	i	0
COc1cc(/C=N/NC(=O)c2ccc(CSc3nc4ccccc4[nH]3)cc2)cc(OC)c1OC	?	-12	14	0	-3	-7	i	8
COc1ccc(N=C2SC(CC(=O)Nc3ccccc3)C(=O)N2Cc2ccccn2)cc1 (stereo not given)	2	3	-1	0	-5	.	i	2
CCOC(=O)c1ccc(NC(=O)N2CCN(C(=O)c3ccco3)CC2)cc1	-3	-4	0	2	2	.	i	-2
CN(C(=O)CSc1nnc(-c2ccncc2)n1C)C1CCS(=O)(=O)C1 (stereo not given)	.	1	6	9	0	-4	i	6
COc1ccc(/C=N/NC(=O)c2cnccn2)cc1O	-23	-2	11	8	2	.	i	-6
O=C(O)CCn1c(SCc2cccc3ccccc23)nc2ccccc21	6	4	6	4	0	-14	i	2
CC(C)(C)OC(=O)N1CCC(CC2CC(c3cccc(Br)c3)=NO2)(C(=O)NCC2CCCCC2)CC1 (stereo not given)	-3	-2	.	.	17	-11	i	1
NS(=O)(=O)c1ccc(NC(=O)CSc2ccc3ccccc3n2)cc1	-32	-7	0	-4	-7	-17	i	-2
CC(=O)c1cccc(NC(=O)/C(=C\c2ccco2)NC(=O)c2cccs2)c1	-51	0	-7	-9	-6	2	i	11
COc1ccc(CC(=O)Nc2ccncc2Cl)cc1	24	2	9	-27	8	-3	i	-13
c1ccc(CCN2CN=C(Nc3nc4ccccc4o3)NC2)cc1	-61	-10	6	3	4	-9	i	-8
CCOc1ccc(NC(=O)c2ccc(NC(=O)c3ccc(CN4CCOCC4)cc3)cc2)cc1	12	-9	4	-7	-6	.	i	0
CCC(=O)NC(=S)Nc1ccc(N2CCOCC2)cc1	-12	-5	3	4	-12	.	i	15
CCOC(=O)c1c(C)n(-c2ccccc2)c2ccc(OCCN(C)C)cc12	7	-6	-1	1	10	-2	i	0
COc1ccccc1C#Cc1ccc2c(=O)c3ccccc3n(C)c2c1	?	12	-1	-4	45	-15	i	7
COc1ccc(CNC(=O)C2(C)Cc3ccccc3C(=O)O2)cc1 (stereo not given)	-38	2	4	2	6	.	i	-2
O=C(NCCCN1CCOCC1)c1onc(CSc2ccccc2)c1C(=O)NCCCN1CCOCC1	-16	.	4	3	-30	-10	i	.
CC(C)c1nc(C(=O)N2CCCC(N3CCN(c4cccc(Cl)c4)CC3)C2)cs1 (stereo not given)	-23	-10	7	-10	4	0	i	4
COCCN(C(=O)Cc1cccs1)C(C(=O)NCc1ccc(OC)cc1)c1ccc(OC)cc1 (stereo not given)	.	8	-1	0	.	-8	i	-2
COc1cc(C(=O)NCC(=O)OCn2nnc3ccccc3c2=O)cc(OC)c1OC	5	-6	2	6	-7	.	i	-8
CN(Cc1ccccc1)C(=O)c1ccc(NC(=O)Cc2cccc(NC(=O)C3CCCN(C(=O)C4CCCCC4)C3)c2)cc1 (stereo not given)	24	.	2	-3	-2	-3	.	.
CCOC(=O)Cc1csc(SCC(=O)Nc2cc(C)ccc2OC)n1	6	-4	1	-1	-13	.	i	-7
Cc1ccc(C(=O)CSc2nnc3ccccn23)c(C)c1	-1	-5	3	6	6	-47	i	11
CCOc1ccc(NC(=O)COC(=O)Cn2cnc3ccccc32)cc1	1	.	-2	5	-6	-6	.	.

The final 3 records of the section before lead into the next:
SMILES	HIV Env fusion	PABP polyA inh	MT1-MMP act inh	MT1-MMP act inh RFP	CSC inhib	UUG fidelity	Rce1 inh	eIF4H inh	others
CCOC(=O)Cc1csc(SCC(=O)Nc2cc(C)ccc2OC)n1	6	-4	1	-1	-13	.	i	-7
Cc1ccc(C(=O)CSc2nnc3ccccn23)c(C)c1	-1	-5	3	6	6	-47	i	11
CCOc1ccc(NC(=O)COC(=O)Cn2cnc3ccccc32)cc1	1	.	-2	5	-6	-6	.	.
O=C(CS(=O)(=O)c1cn(CC(=O)N2CCOCC2)c2ccccc12)NCc1ccccc1	-9	-8	0	7	-7	-14	i	4
Fc1ccccc1-c1cc2cc3c(cc2cn1)OCO3	-317	.	5	-3	14	-13	.	.
Cc1ccc(C(O)c2ncc(-c3ccc(Cl)cc3)[nH]2)c(C)c1 (stereo not given)	44	.	2	-5	.	-16	.	.
OCCN(Cc1nc(-c2ccc3c(c2)OCO3)no1)Cc1cccs1	-6	6	1	-2	-7	-8	i	-6
COc1ccc(NC(=O)CSc2nnc(NC(=O)C3CCC3)s2)cc1	18	10	3	2	4	-17	.	-5
N#C/C(N=Nc1ccccc1O)=N\Nc1ccccc1O	-7	.	-50	-30	9	-43	i	.
COC(=O)c1c(NC(=O)c2c(Cl)cnn2C)sc(C)c1C	0	-6	-1	-1	8	.	i	6
Cc1ccc(N2C(=O)N3[C@H]4c5ccccc5OC[C@@H]4[C@@H](c4ccccc4)[C@@]3(C)C2=O)cc1	.	2	-3	-3	.	-12	i	-17
C=CCSc1nnc2c(n1)OC=Nc1ccccc1-2	.	3	-1	-1	-10	-21	i	-2
COc1cccc(/C=C(/C(=O)OCC(=O)NC2CCCC(C)C2C)c2ccccc2)c1 (stereo not given)	50	45	-3	-8	37	.	i	-5
CCc1cc(C(=O)O)c(NC(=O)C(c2ccccc2)c2ccccc2)s1	.	5	5	2	1	-3	i	-2
Cc1ccc(NC(=O)c2ccccn2)cc1S(=O)(=O)N1CCOCC1	2	-7	3	5	-4	.	i	-1
O=C(O)CCC(=O)OC1CC2CCC1C2 (stereo not given)	-81	-6	2	1	-9	-16	i	-8
O=c1cc(CSc2nc(NCc3ccc(Cl)cc3)c3ccccc3n2)nc2ccc(Cl)cn12	28	.	2	0	.	8	.	.
Cc1c(NC(=O)COC(=O)Cc2ccc(Cl)cc2)c(=O)n(-c2ccccc2)n1C	.	3	-1	-4	4	-4	i	-8
Cc1c(Cl)cccc1NC(=O)CCN1CCN(C)CC1	11	6	-4	0	-20	-3	i	2
Clc1ccccc1C1SCC2Nc3ccccc3CN21 (stereo not given)	.	0	-1	1	.	-12	i	-6
COCCCN(C(=S)NC(=O)c1ccc(C(C)(C)C)cc1)c1c(N)n(Cc2ccccc2)c(=O)[nH]c1=O	.	-3	-4	-3	0	.	i	-8
Cc1cccc(N(C(=O)Cn2nnc3ccccc32)C(C(=O)NCc2ccco2)c2ccncc2)c1C (stereo not given)	.	12	-3	-4	-7	-10	i	8
O=C1NC(c2ccco2)Nc2sc3c(c21)CCN(Cc1ccccc1)C3 (stereo not given)	5	124*	-25	-1	-5	-4	.	116*	eIF4H inh retest=68*;PABP polyA inh retest=86*
C[C@@H]1CN([C@@H](C)CO)C(=O)c2cccc(NC(=O)Nc3ccc(F)cc3)c2O[C@@H]1CN(C)Cc1ccc(Oc2ccccc2)cc1	-232	.	-5	-8	.	2&-2	.	.
O=C(CCCOc1ccc(Cl)cc1Cl)NCc1ccncc1	-2	-8	0	-4	-11	-20	i	-7
CCOC(=O)c1cc(S(=O)(=O)NCCc2ccc(OC)c(OC)c2)cn1C	-2	.	-2	-1	-12	0	i	.
COc1ccc(NC(=O)c2cc3n(n2)C(C(F)(F)F)CC(c2ccc4c(c2)OCO4)N3)cc1OC (stereo not given)	.	9	4	-1	-5	-6	.	1
Nc1nc(-c2ccc(F)cc2)cc(C(F)(F)F)n1	-260	2	5	1	-14	12	i	2
COc1cc(/C=N/NC(=O)C2CC(=O)N(c3ccc(C)cc3)C2)cc(OC)c1OC (stereo not given)	11	8	7	-3	-10	-12	.	6
COCCCNC(=O)c1ccc2c(=O)n(Cc3ccc4c(c3)OCO4)c(=S)[nH]c2c1	-3	-1	23	1	10	-6	i	0
N#Cc1ccc(N2Cc3ccccc3/C2=N/C(=O)Nc2ccc(Cl)cc2)cc1	-7	-14	-3	-3	34	.	i	54	eIF4H inh retest=19;PABP polyA inh retest=31
CCCC(=O)N1CCC1(C)C(=O)NS(=O)(=O)c1ccc(OC)cc1 (stereo not given)	-5	.	0	3	.	-8	.	.
COCCn1c(SCC(=O)NC2CCCCC2)nnc1-c1ccncc1	4	-1	-1	-1	-15	-9	.	-15
Cn1c(CNc2cccc(Cl)c2)nnc1SCC(=O)OC1CCCCC1	-63	0	4	-1	.	-9	i	5
Cc1noc(C)c1CSCC(=O)N1CCN(c2ccc([N+](=O)[O-])cc2)CC1	.	-12	-6	-25	2	12	i	5
CC1CCCCN1S(=O)(=O)c1ccc(C(=O)Nc2ccccc2-c2nc3ccccc3s2)cc1 (stereo not given)	19	-11	0	-2	-13	-8	i	6
CC(C)(C)OC(=O)C(C)(C)Sc1nnc(N)s1	6	4	-9	-8	-9	.	.	2

Assay outcomes (PubChem)

An excerpt, so the mix of outcomes need not match the whole.
